# 2A firefly: lowers the firefly signal of an FMDV 2A StopGo reporter. 0.23% of 120,000 active. AID 1745856. HEK cells with a luciferase reporter of 2A StopGo recoding. Potency, µM (doses to about 57.5 µM), without a hit: at the highest dose signal change, negative = less light; active = well fitted falling curve with a large enough effect; inconclusive = small, poorly fitted or top-dose-only effect; inactive = no such curve, though single readings can be large or run the other way; also: nearly all actives have a fitted effect of over 60% in size; overnight with compound
# 2A Renilla: lowers the Renilla signal of an FMDV 2A StopGo reporter; 0.32% of 120,000 active; Potency, µM (series often up to 57.5 µM), without a hit: top-dose signal change, negative = less light; HEK cells with a luciferase reporter of 2A StopGo recoding; active means well fitted falling curve with a large enough effect; inconclusive means small, poorly fitted or top-dose-only effect; inactive means no such curve, though single readings can be large or run the other way; also: nearly all actives have a fitted effect of over 55% in size; overnight with compound
# Numbers without * were called inactive; ? = inconclusive; & = joins results of further samples; [ ] = another dose, or the depositor's remark. % is scaled to controls: 0 for no effect and ±100 for the full control effect; potency is read from the fitted curve at half-maximal effect.
SMILES,2A firefly,2A Renilla
CNC(=O)C(NC(=O)c1c(F)cccc1F)C(C)C (stereo not given),-10%,-2%
CCC(C)NC(=O)c1cccc(NC(=O)c2nsc3ccccc23)c1 (stereo not given),128%[activator],6%
CCNc1c(NC(=O)Nc2ccc(C)c(Cl)c2)c(=O)oc2ccccc12,7%,4%
COc1ccc2c(=O)c(Oc3cc(C)cc(C)c3)coc2c1,8%,8%
COc1ccc(OC)c(CCNC(=O)c2nn(C)c3c2CSc2ccccc2-3)c1,-21%,-3%
COc1ccc(OC)c(NC(=O)c2ccc(-c3nc(COc4ccccc4)c(C)o3)cc2)c1,0%,17%
O=C(Cc1ccccc1)c1ccc(Br)cc1,77%[activator],7%
CC(C)CNC(=O)[C@H](C)NC(=O)OCc1ccccc1,-2%,5%
COc1cc(/C=N/O)ccc1OCC(C)C,73%[activator],13%
CCc1ccc(Nc2nn3c(=O)c4cc5c(cc4nc3s2)OCO5)cc1,-11%,-10%

# Six of the compounds above, with values under each structure.
# The line under a structure holds: 2A firefly	2A Renilla
- CCNc1c(NC(=O)Nc2ccc(C)c(Cl)c2)c(=O)oc2ccccc12
 : 7%	4%
- COc1ccc2c(=O)c(Oc3cc(C)cc(C)c3)coc2c1
 : 8%	8%
- COc1ccc(OC)c(CCNC(=O)c2nn(C)c3c2CSc2ccccc2-3)c1
 : -21%	-3%
- COc1ccc(OC)c(NC(=O)c2ccc(-c3nc(COc4ccccc4)c(C)o3)cc2)c1
 : 0%	17%
- O=C(Cc1ccccc1)c1ccc(Br)cc1
 : 77%[activator]	7%
- CC(C)CNC(=O)[C@H](C)NC(=O)OCc1ccccc1
 : -2%	5%

# New compounds follow:
SMILES,2A firefly,2A Renilla
COc1ccc(C(=O)CC2(O)C(=O)Nc3ccc(F)cc32)cc1 (stereo not given),0%,88%[activator]
COc1cc(NC(=O)CC(c2cccs2)N2Cc3ccccc3C2=O)cc(OC)c1OC (stereo not given),0%,53%[activator]
CCOc1cccc(/C=C2\N=C(SC)SC2=O)c1,-10%,-7%
CC(CNC(=O)NCc1ccc(F)cc1)CN1CCN(C)CC1 (stereo not given),10%,8%
O=C(NCc1cccc(Br)c1)c1cccn1-c1nnc(N2CCCCC2)s1,?,1%
CC(=O)c1ccc(NC(=O)c2nn(C)c3c2CS(=O)(=O)c2ccccc2-3)cc1,0%,5%
COc1ccc(Nc2oc(/C=C/c3cccc(OC)c3)nc2C#N)cc1,93%&75%[activator],-6%&-10%
COc1ccc(NC(=O)CCCN2C(=O)COc3ccc(C)cc32)cc1OC,0%,-10%
COc1cc(S(=O)(=O)N2CCC(C(N)=O)CC2)c(OC)cc1Cl,0%,81%[activator]
Cc1ccn2cc(-c3ccccc3)cc2c1,20%,2%
CCOCCOC(=O)COc1ccc2c(=O)c(Oc3cc(C)c(Cl)c(C)c3)coc2c1,-10%,-14%
COc1ccc(Nc2nc3ccccc3nc2NS(=O)(=O)c2ccc(Cl)s2)cc1,-8%,27%
CC(=O)N1CCc2c(sc3c2c(=O)n(-c2cccc(Cl)c2)c(=O)n3Cc2ccc(F)cc2Cl)C1,-27%,-12%
Cc1ccc(NC(=O)Cn2c(=O)n(Cc3nc(C)no3)c(=O)c3cc4c(cc32)OCO4)cc1,-21%,-19%
CN(Cc1cccs1)C(=O)c1ccc(-c2ccccc2)cc1,109%[activator],26%
CS(=O)(=O)CCC(NS(=O)(=O)/C=C/c1ccccc1)C(=O)O (stereo not given),-1%,0%
CC(=O)NN1C(=O)c2ccccc2NC1c1ccco1 (stereo not given),-13%,-6%
Cc1ccc(C2CC(c3ccccc3)=NN2S(C)(=O)=O)cc1 (stereo not given),140%[activator],127%[activator]
COc1ccc(C)cc1NS(=O)(=O)c1ccc2oc(=O)c3ncn(C)c3c2c1,4%,16%
O=C(Cc1ccc(F)cc1)N(Cc1ccco1)C1CC1,5%,0%
CC(=O)N1CCCc2cc(S(=O)(=O)N3CCC(C(=O)N(C)C4CCCCC4)CC3)ccc21,35%[activator],47%[activator]
Cc1ccc(C(C)NC(=O)CCCc2nc(C(C)(C)C)no2)o1 (stereo not given),-9%,-4%
CNC(=O)c1cccc(NC(=O)c2cc(C3CC3)nc3ccccc23)c1,47%[activator],43%[activator]
CC(C)n1c(=O)c2oc3ccccc3c2n(Cc2ccccc2F)c1=O,-12%,2%
CC(=O)OC(C(N)=O)C(OC(C)=O)C(N)=O (stereo not given),26%,28%
Cc1ccccc1/C=N/O,-5%,2%
CCc1ccc(C(=O)c2cn(CC(=O)NCCc3ccc(OC)c(OC)c3)c3nc(C)ccc3c2=O)cc1,-5%,5%
COc1ccc(-c2c(C#N)c(SCC(=O)Nc3ccc(C)c(C)c3)nc(C)c2C(=O)Nc2ccc(Cl)cc2)cc1,-18%,-22%
c1cc(C2CC2)[nH]n1,-2%,-6%
O=C(/C=C/c1ccc(O)cc1)c1ccc(-c2cccs2)cc1,0%,113%[activator]
CN(Cc1ccccc1)c1ccc(-c2nc(-c3cccnc3)no2)cc1[N+](=O)[O-],20%,-12%
CCCn1nc(C(=O)Nc2ncc(Cc3cccc(Cl)c3)s2)ccc1=O,28µM*,?
COC(=O)CCCN(C)C(=O)c1cc(-c2ccncc2)nc2ccccc12,-9%,-7%
COc1ccccc1NS(=O)(=O)c1ccc2oc(SCC(=O)N(C)C)nc2c1,-7%,51%[activator]
Cc1ccccc1Nc1c(-c2ccc(N3CCOCC3)cc2)nc2ncccn12,21%,-7%
CC(C)Oc1nnc(SCC(=O)NCc2ccccc2)s1,3%,1%
CCN(CC)c1cc(C)nc(Nc2ccc(NS(=O)(=O)c3cc(C(C)(C)C)ccc3OC)cc2)n1,?,-87%
C=CCNC(=O)NC(=O)CN(CC)Cc1cccs1,0%,-5%[1.06 µM]
CCc1ccccc1NC(=O)Nc1nnc(N2CCCC2)s1,-9%,-10%
COc1ccc(-c2cc(C(F)(F)F)n3nc(C)c(-c4ccccc4)c3n2)cc1OC,6%,6%
CCOC(=O)c1cc2c(=O)n3ccccc3nc2n(Cc2ccco2)c1=NC(=O)c1ccc(Br)cc1,58%[activator],5%
NCc1ccc(S(N)(=O)=O)cc1,-20%,-11%
Cc1cc(Cl)ccc1OCC(=O)NC1CCN(C2CC2)CC1,-16%,-24%
CC1CCCN(C(=O)C2CCN(Cc3ccc(C(F)(F)F)cc3)CC2)C1 (stereo not given),?,5%[1.06 µM]
Cc1nc(Nc2nc3ccccc3o2)nc(C)c1C(=O)Nc1ccc(F)cc1,8%,0%
CC(C)CNC(=O)C(C)SCc1ccccc1 (stereo not given),17%,-2%
CCN1CCc2c(sc(-n3cccc3)c2C(C)NC(=O)Nc2ccccc2C)C1 (stereo not given),-23%,-21%
C[C@]12CC[C@H]3[C@@H](CCC4=CC(=O)CC[C@@H]43)[C@@H]1CC[C@@H]2OC(=O)CCC1CCCCC1,-8%[11.5 µM],-7%
CCOC(=O)C1CCCN(C(=O)Cn2ncc3c([nH]c4ccc(C)cc43)c2=O)C1 (stereo not given),-20%,-16%
CCN(C(=O)C(C)S(=O)(=O)Cc1cccc(Cl)c1)c1ccccc1 (stereo not given),-10%,1%
# Next part
SMILES,2A firefly,2A Renilla
CC1COCCN1Cc1ccccc1C#N (stereo not given),-5%,-11%
Cc1cc(C(=O)OCC(=O)c2cccc([N+](=O)[O-])c2)c2ccccc2n1,-10%,-17%
COc1c2occc2c(OC)c2c(=O)cc(C)oc12,-19%,-13%
CCOC(=O)c1c(-c2ccc(OC)c(OC)c2)csc1NC(=O)CNC(C)(C)CC,-30%,22%
COc1ccc(OC)c(/C=C(/C#N)c2nc(-c3ccc(-c4ccccc4)cc3)cs2)c1,2%,-1%
CC(=O)N1CCN(c2nc(C)c3c(c2C#N)CCCC3)CC1,26%,15%
CCn1cc(C(=O)NCc2ccccc2Cl)c(=O)c2cc(S(=O)(=O)N3CCc4ccccc4C3)ccc21,-21%,-4%
Cc1ccc(Cn2c(SCC(=O)C(C)(C)C)nc3ccsc3c2=O)cc1,-24%,2%
CN(C(=O)CSc1nnc(-c2cccnc2)o1)C1(c2ccccc2Cl)CCCCC1=O (stereo not given),-5%,1%
Cc1ccc(NC(NC(=O)c2ccc(Cl)cc2)C(Cl)(Cl)Cl)cc1 (stereo not given),?,?
O=C(O)C12CCCC(C(=O)O)(CCC1)C2,5%,9%
COc1cc(N2CC(C(=O)Nc3c(C)nn(C)c3C)CC2=O)cc(OC)c1OC (stereo not given),0%,1%
Cc1ccc2nc(C)c(C(=O)N3CCN(S(=O)(=O)c4cccc(F)c4)CC3)cc2c1,-21%,?
CCN(Cc1ccccc1)C(=O)c1cnn(-c2ccc(F)cc2)c1-n1cccc1,13%,110%[activator]
Cc1ccccc1CSC1=NS(=O)(=O)c2ccccc2N1Cc1ccccc1,-8%,71%[activator]
CCCc1cc(=O)[nH]c(SCC(=O)N2CCN(S(=O)(=O)c3ccc(C)c(C)c3)CC2)n1,7%,2%
CCOc1ccc(CNS(=O)(=O)c2cc(-c3cc(C)no3)ccc2C)cc1OC,-8%,50%[activator]
Cc1cc(C)cc(NC(=O)CSCc2cc(=O)c3cc(Cl)ccc3[nH]2)c1,-12%,-3%
CCc1cccc(NC(=O)CCc2c(C)nc3c(-c4ccccc4)c(C)nn3c2C)c1,-10%,-1%
Cn1cc(S(=O)(=O)c2cccc(Cl)c2)c(=O)c2cc(F)c(N3CCCCCC3)cc21,5%,6%
COC(=O)c1sc(NC(=O)c2cc3nc(-c4ccc(Br)cc4)cc(C(F)(F)F)n3n2)c(C(=O)OC)c1C,-9%,23%
O=C(O)c1ccccc1OP(=O)(O)O,-1%[11.5 µM],-15%
Cc1oc2ncnc(N3CCOCC3)c2c1C(=O)N(Cc1ccccc1)C(C)C,-21%,-4%
Cc1ccccc1OCC(=O)Nc1ccc2nc(SCC(N)=O)sc2c1,88%[activator],18%
CCC1CCCCN1CCCNC(=O)c1c(O)nc2ccccn2c1=O (stereo not given),-15%,-9%
O=C(Cc1c[nH]c2ccccc12)Nc1cc(S(=O)(=O)N2CCOCC2)ccc1N1CCCC1,-15%,43%[activator]
COC(=O)C1=C(C)N(C)C(=O)N(C)C1c1ccc(Br)cc1 (stereo not given),-5%,1%
O=C1CCCC2=C1C(c1ccc(O)c(Cl)c1)C1=C(CCCC1=O)O2,0%,37%[activator]
Cc1cc2n(n1)CCCN2C(=O)Nc1ccc(Cl)cc1,50%[activator],18%
COc1ccc(CCNC(=O)c2nccnc2N)cc1,148%[activator],4%
Cc1ccc(C)c(NC(=O)CSc2nnc(CNC(=O)c3ccccc3)n2-c2ccccc2)c1,7%&-13%,73%&22%[activator]
Cc1cn(S(=O)(=O)c2ccc(F)c(Cl)c2)cn1,-10%,0%
CCOC(=O)c1cccc(NS(=O)(=O)c2cc3[nH]c(=O)c(=O)[nH]c3cc2C)c1,-8%,-15%
CC(=O)Nc1nc2ccc(CCC(=O)N3CCN(c4cccc(Cl)c4)CC3)cc2s1,67%[activator],-5%
Cc1ccc(N(Cc2cccs2)C(=O)c2ccco2)cc1,-1%,-5%
COCCn1c(SCC(=O)Nc2ccc(Br)cc2)nc2c([nH]c3ccccc32)c1=O,-15%,-1%
CC(OC(=O)c1cc(C2CC2)nn1-c1ccccc1)C(=O)Nc1ccc2c(c1)OCCO2 (stereo not given),21%,-9%
O=C1CN(C(=O)COc2ccc(Cl)cc2)C(c2ccc(F)cc2)c2cc(Cl)ccc2N1 (stereo not given),-27%,-6%
COc1ccc(OC)c(NC(=O)CC(=O)Nc2ccc3nc4n(c(=O)c3c2)CCCCC4)c1,12%,-5%
O=C(/C=C/c1ccc(F)cc1)NCCCCCCNC(=O)/C=C/c1ccc(F)cc1,-4%,9%

# Compound profiles, as listed above:
# O=C1CN(C(=O)COc2ccc(Cl)cc2)C(c2ccc(F)cc2)c2cc(Cl)ccc2N1 (stereo not given) reads 2A firefly: -27%; 2A Renilla: -6%
# COCCn1c(SCC(=O)Nc2ccc(Br)cc2)nc2c([nH]c3ccccc32)c1=O reads 2A firefly: -15%; 2A Renilla: -1%

# (cont.)
SMILES,2A firefly,2A Renilla
Cc1cc(C)nc(NC2=NCC(=O)N2c2ccc(C)c(Cl)c2)n1,3%,-20%
CCc1ccc(-c2nc(CN3CCC(C(=O)NCCc4ccc(Cl)cc4)CC3)c(C)o2)cc1,-8%,-6%
COc1cc(C(=O)/C=C/c2ccc(F)cc2)ccc1S(C)(=O)=O,2%,12%
COCCCNC(=O)c1cc(-c2ccc(C)c(C)c2)nc2ccccc12,149%[activator],0%
COC(CNC(=O)c1cc(Nc2cc(C)cc(C)c2)nc2ccccc12)OC,-7%,-11%
O=C(CCn1c(=O)c2cccn2c2ccc(F)cc21)NCCc1ccc(Cl)cc1,?,-16%
CC1CCC(C(C)C)C(NC(=O)c2ccccc2)C1 (stereo not given),14%,16%
COc1ccc(OC)c(NC(=O)c2cc(=O)c3cc(C)ccc3o2)c1,12%,8%
CCCn1cc(S(=O)(=O)c2ccc(CC)cc2)c(=O)c2cc(F)c(N3CCN(C)CC3)cc21,25%,8%
Cn1c(=O)c2c(nc(Cl)n2Cc2ccc(Cl)cc2)n(C)c1=O,5%,-5%
CCOC(=O)c1ccc(N2C(=O)c3n[nH]c(-c4cccs4)c3C2c2cccc(O)c2)cc1 (stereo not given),?,-10%
O=C(C1CCCCC1)N1CC(=O)N2CCc3ccccc3C2C1 (stereo not given),-4%[11.5 µM],-2%
Cc1cc(C(=O)N2CCN(S(=O)(=O)c3c(F)cccc3F)CC2)c(C)n1Cc1cccs1,-29%,-16%

# Source: PubChem BioAssay (National Center for Advancing Translational Sciences (NCATS))
